# rRNA inh HTS = reduced GFP signal of wild-type E. coli, primary screen, bacterial rRNA inhibitor project, GFP/RFP fluorescence, OD600, single point; E. coli WT GFP vs humanized-ribosome RFP mutants, 24 h; stronger effect = lower value; DMSO median 0, no signal -100; GFP signal change (wild-type ribosome), % (no concentration beside the values); actives 1.6% (n = 350,000);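 active means significant combined selectivity score with lowered wild-type GFP, culture density cut under 30%, mutant RFP and density less affected; inactive means any of these conditions unmet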; further: one replicate is shown; some compounds called inactive have numbers as strong as hits
# E coli growth = E. coli growth inhibition, primary screen, OD600; Escherichia coli growth, 23 h; stronger effect = lower value; OD600 absorbance (no concentration beside the values); actives 0.21% (n = 330,000);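 active means OD600 absorbance below the run mean of sample wells minus 3.6 SD, in any replicate, cut at about 0.56 in these data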;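 further: stock transfer was 300 nL into about 60 µL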
# AF4-AF9 inh = inhibitors of AF4 peptide binding to AF9, primary screen, biochemical, AlphaScreen, biotin-AF4 peptide, FLAG-AF9, single point; actives 0.47% (n = 350,000); inhibition, % at 10 µM; Protein AF-9 (Homo sapiens), P42568; AID 651704, 2012;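 active means every replicate reaching a set inhibition limit, whatever the replicate mean, cut at about 25% in these data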;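 further: 0% = plate neutral control median and 100% = total signal loss; the record names both 10 and 1 µM as test concentration; the first replicate is given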
# Target sequence (P42568 whole entry, looked up): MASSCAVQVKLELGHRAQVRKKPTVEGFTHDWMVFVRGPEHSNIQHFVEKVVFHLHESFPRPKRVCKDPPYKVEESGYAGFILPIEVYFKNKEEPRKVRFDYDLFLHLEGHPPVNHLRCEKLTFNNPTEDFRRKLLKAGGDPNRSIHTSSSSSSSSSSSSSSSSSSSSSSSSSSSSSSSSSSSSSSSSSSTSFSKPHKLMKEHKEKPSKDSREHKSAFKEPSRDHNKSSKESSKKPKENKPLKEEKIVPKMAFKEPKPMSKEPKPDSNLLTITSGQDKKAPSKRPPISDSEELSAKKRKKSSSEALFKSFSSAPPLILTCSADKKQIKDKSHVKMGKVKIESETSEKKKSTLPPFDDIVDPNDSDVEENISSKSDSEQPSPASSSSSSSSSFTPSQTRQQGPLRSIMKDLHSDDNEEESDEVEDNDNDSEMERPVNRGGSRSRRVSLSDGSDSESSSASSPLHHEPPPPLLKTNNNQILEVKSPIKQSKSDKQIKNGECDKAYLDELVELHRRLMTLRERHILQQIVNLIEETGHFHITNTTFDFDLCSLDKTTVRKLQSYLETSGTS
# FGF22 binding = binders of human FGF22 protein, primary screen, FGF22 synaptogenesis inhibitor project, biophysical, thermal shift, single point; Fibroblast growth factor 22 (Homo sapiens), Q9HCT0; recombinant FGF22 thermal shift, SYPRO orange fluorescence; percent of sucrose octasulfate shift, DMSO zero; calls only at 9.99 µM; actives 1.5% (n = 340,000); AID 651658, 2012;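 active means melting point raised past a set limit in the mean and every replicate; three in four hits are not shown here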
# Target sequence (Q9HCT0 whole entry, looked up): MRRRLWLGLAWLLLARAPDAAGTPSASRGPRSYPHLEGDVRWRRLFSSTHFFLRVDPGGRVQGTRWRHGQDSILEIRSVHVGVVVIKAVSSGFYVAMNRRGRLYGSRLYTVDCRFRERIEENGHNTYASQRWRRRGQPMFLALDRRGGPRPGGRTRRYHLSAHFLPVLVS
# T cruzi inh = inhibitors of intracellular T. cruzi growth, primary screen, luminescence, NIH3T3 host cells; AID 1885, 2009; inhibition, % (test concentration not listed); actives 1.4% (n = 300,000); T. cruzi beta-gal in NIH3T3, 90 h;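 active means mean inhibition across valid replicates above about 55%, limit read from the data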;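 further: signal also drops with host cell toxicity which is not excluded here; 0% = plate median of DMSO wells and 100% = zero luminescence signal; higher percent means less beta-gal luminescence so fewer parasites; stock transfer was 50 nL into about 50 µL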
# A1 inh = caspase 3/7 activation in MEF A1-2A-BIM cells, primary screen, A1 inhibitor project, cell-based, luminescence, HTS; Caspase-Glo 3/7 luminescence, 3 h; percent of clofoctol response, vehicle zero; caspase activation, % (test concentration not listed); actives 0.066% (n = 330,000); AID 2462, 2010;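 active means over half of replicate activation scores above 10%, or exactly half above 10 with the replicate mean above 10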;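 further: wells of about 30 µL received 50 nL stock; many hits fall short of the cut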
# Beta cell apopt = inhibitors of cytokine-induced beta cell apoptosis, primary screen, luminescence; INS-1E cytokine-induced death, ATP luminescence, 48 h; percent of positive-control rescue, neutral wells zero; protection from apoptosis, % (no concentration beside the values); actives 0.8% (n = 300,000); AID 435005, 2010;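 active means all replicates at 75% or more, or half of them and the mean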;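 further: 0% = cytokine-treated negative control wells and 100% = positive control rescue; higher means more ATP so stronger rescue from cytokine killing; wells of about 40 µL received 100 nL stock; the first replicate is given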
# UCH37 inh = inhibitors of human UCH37 deubiquitinase, primary screen, biochemical, Ub-AMC cleavage, fluorescence; purified proteasome/UCH37; Ubiquitin carboxyl-terminal hydrolase isozyme L5 (Homo sapiens), Q9Y5K5; actives 0.33% (n = 330,000); AID 588478, 2011; inhibition, % (concentration not given with the values);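 active means mean of two replicates above 20%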;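 further: 0% = compound-free wells with enzyme and 100% = wells lacking proteasome; stock transfer was 100 nL into about 20 µL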
# Target sequence (Q9Y5K5 whole entry, looked up): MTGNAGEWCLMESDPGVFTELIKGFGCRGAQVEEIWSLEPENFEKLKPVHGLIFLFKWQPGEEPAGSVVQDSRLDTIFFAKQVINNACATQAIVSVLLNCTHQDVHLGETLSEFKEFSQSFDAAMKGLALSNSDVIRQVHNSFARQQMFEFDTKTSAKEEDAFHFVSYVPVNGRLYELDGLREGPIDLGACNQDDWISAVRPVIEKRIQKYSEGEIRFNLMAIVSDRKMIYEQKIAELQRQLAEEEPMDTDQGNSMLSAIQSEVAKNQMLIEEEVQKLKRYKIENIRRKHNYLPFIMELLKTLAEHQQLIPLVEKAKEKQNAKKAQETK
#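 Signal – fluorescence, ex 355 nm, em 460 nm · System – Proteasome-bound UCH37 · Input – 0.15 nM proteasome as dispensed · Timing – 30 min preincubation with enzyme, 25 min cleavage at room temperature · Read-out basis – percent inhibition of cleavage signal versus uninhibited and no-proteasome wells · Medium – Tris-HCl pH 7.4 with ATP-MgCl2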
# rRNA inh HTS OD600 = second read-out of rRNA inh HTS, no call of its own (marks repeat the call); OD600 change, %; measured here: OD600 growth;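 optical density of the mix in the first replicate; 0 = DMSO median and -100 = no signal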
# rRNA inh HTS RFP = further read-out of rRNA inh HTS, marked with its call; RFP signal change, %; measured here: RFP humanized mutant strains;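 first replicate; 0 = DMSO median and -100 = no signal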
# The depositor's hits bear a star; i = inactive; . = not tested or not shown.
SMILES,rRNA inh HTS,rRNA inh HTS OD600,rRNA inh HTS RFP,E coli growth,AF4-AF9 inh,FGF22 binding,T cruzi inh,A1 inh,Beta cell apopt,UCH37 inh
Cc1ccc(N(CC(N)=O)C2SC(=O)N(Cc3ccccc3)C2=O)cc1 (centres undefined),.,.,.,0.73,.,.,-11,0.3,3,0.2
CCOC(=O)c1ccc(N=C2SC(C(=O)NC)CC(=O)N2Cc2ccc(F)cc2)cc1 (centres undefined),-3,-11,-5.1,0.71,-7.8,i,18,0.0,-2,4.4
CC1CCCCN1S(=O)(=O)c1ccc(NC(=O)c2ccco2)cc1 (centres undefined),.,.,.,0.66,.,.,-8,0.2,.,0.3
COc1ccc(N2C(=O)C3C4C=CC(CC4)C3C2=O)c([N+](=O)[O-])c1 (centres undefined),.,.,.,0.71,.,.,0,-0.8,-5,2.0
CC(=O)Nc1ccc(Nc2nc(-c3cc4ccccc4oc3=O)cs2)cc1,-21,-18,-3.1,0.64,-4.1,i,17,0.2,.,0.6
Cc1cc(N/N=C/c2ccc3c(c2)OCO3)nc2ccccc12,-46,-44,-10.0,.,17,i,15,-2.9,-3,.
CCOc1ccc2nc(NC(NC(C)=O)(C(=O)OC)C(F)(F)F)sc2c1 (centres undefined),.,.,.,0.69,.,.,-3,0.3,-5,0.0
CCCN(CCC)CCNC(=O)CCC(=O)Nc1ccc2nc(N3CCOCC3)cc(C)c2c1,3,6,2.8,0.65,1.7,i,-7,1.1,0,-445
CCOc1ccccc1C=Nc1ccccc1C(=O)Nc1ccccc1,.,.,.,0.69,.,.,-16,0.6,0,-203
Cc1ccccc1NS(=O)(=O)c1csc(C(N)=O)c1,-2,1,-0.1,0.68,-1.7,i,-16,0.8,0,4.5
COC(=O)NCC12CC3CC(C1)CC(CNC(=O)OC)(C3)C2,.,.,.,0.67,.,.,-6,0.8,0,1.7
CC1CCN(S(=O)(=O)c2cccc(C(=O)O)c2)CC1,.,.,.,0.69,.,.,1,0.9,-2,2.0
Cc1ccccc1/C=N/n1c(-c2ccccn2)n[nH]c1=S,2,5,-1.2,.,-3.1,i,-7,0.0,-3,.
CCC(C)C(=O)Nc1nc2ccc(OC)cc2s1 (centres undefined),-22*,-0.9*,-4.4*,0.66,0.0,i,1,-2.1,2,4.5
CC(C)C(C(=O)NCc1ccco1)N(Cc1ccco1)C(=O)CNS(=O)(=O)c1ccccc1 (centres undefined),1,3,0.2,0.68,3.3,i,-4,0.5,4,-0.6

# Overlap with the part before: two entries, then new ones.
SMILES,rRNA inh HTS,rRNA inh HTS OD600,rRNA inh HTS RFP,E coli growth,AF4-AF9 inh,FGF22 binding,T cruzi inh,A1 inh,Beta cell apopt,UCH37 inh
CCC(C)C(=O)Nc1nc2ccc(OC)cc2s1 (centres undefined),-22*,-0.9*,-4.4*,0.66,0.0,i,1,-2.1,2,4.5
CC(C)C(C(=O)NCc1ccco1)N(Cc1ccco1)C(=O)CNS(=O)(=O)c1ccccc1 (centres undefined),1,3,0.2,0.68,3.3,i,-4,0.5,4,-0.6
Cc1cccc(N2C(=O)CS/C2=N\NC(=O)c2cccnc2)c1C,2,0,-1.3,.,-2.4,i,-5,0.1,-5,.
Cn1c(=O)c2[nH]c(NCCCN3CCOCC3)nc2n(C)c1=O,.,.,.,0.76,.,.,-23,0.0,-4,0.4
COc1cccc(/C=C/C(=O)N2CCN(c3n[nH]c(=O)[nH]c3=O)CC2)c1OC,8,10,-2.3,0.71,2.8,i,-11,0.0,-4,-1.2
N#Cc1ccc(COC(=O)c2ccccn2)cc1,7,4,2.2,0.71,-1.6,i,5,0.7,-3,-0.2
Brc1cc2c(cc1/C=N/Nc1nc(N3CCOCC3)nc(N3CCOCC3)n1)OCO2,-2,1,3.0,.,-1.0,i,22,0.1,6,.
Cc1ccc(C(=O)OCc2nc3ccccc3s2)o1,-2,-8,2.2,0.7,0.6,.,-5,-1.7,-5,-1.7
COCCNc1nc2nonc2nc1NC(C)c1ccccc1Cl (centres undefined),-32,-59,11,0.68,6.2,i,28,-1.4,7,1.0
CC(=O)Nc1cc(C(=O)N2CCc3ccccc3C2)ccc1Sc1ccc(F)cc1,.,.,.,0.72,.,.,8,0.1,-2,-1.2
Cc1cc(NC(=O)Cn2nc(-c3cccs3)ccc2=O)cc(C)c1Br,4,8,-0.5,0.66,-4.9,i,35,-0.6,-2,-4.0
CCOC(=O)c1ccc(NC(=O)C2(c3ccc(Cl)cc3)CCCC2)cc1,.,.,.,0.74,.,.,39,0.9,-5,0.8
CCSc1cc(N2CCOCC2)nc(-c2ccccc2)n1,5,3,1.6,.,-0.6,i,12,-0.7,-5,-1.1
CC(=O)c1ccc(Oc2nc3c(c(=O)n(C)c(=O)n3C)n2C)cc1,24,26,4.1,0.71,0.2,i,11,0.2,-12,1.1
COc1ccccc1CNC(=O)C(=O)NCC1CCCO1 (centres undefined),.,.,.,0.64,.,.,-18,-0.2,-3,0.7
O=c1[nH]nc(-c2ccc(NCCCO)c([N+](=O)[O-])c2)c2ccccc12,-2,-7,-1.9,0.69,1.3,i,-6,0.6,0,6.8
O=C(COC(=O)CNC(=O)c1ccccc1)NC(=O)NC1CCCCC1,6,12,4.1,0.62,6.0,i,.,1.6,-3,-0.1
Nc1n[nH]c(N)c1N=Nc1ccc(F)cc1,-3,-4,-5.7,0.66,2.8,i,1,0.1,.,11
Cc1cc(NC(=O)CSc2c(C)[nH]c3ccccc23)no1,-6,-14,1.3,0.74,9.7,i,-6,-0.4,-7,2.3
Nn1cnnc1SCC(=O)N1CCc2ccccc2C1,.,.,.,0.67,-1.6,i,.,0.1,3,0.4
CC(=O)Nc1ccc(NC(=O)COC(=O)CCNS(=O)(=O)c2c(Cl)cccc2Cl)cc1,-2,4,-2.5,0.7,1.1,i,.,.,.,4.1
Cc1nc2cncc(Br)c2n1C,.,.,.,0.76,.,.,-15,-0.8,1,0.7
CN1CCN(C(=O)C(=O)c2cn(CC(=O)N3CCCC3)c3ccccc23)CC1,23,19,2.6,0.73,0.5,i,-10,0.1,-4,9.2
Cc1ccc(C(=O)N[C@H](C(=O)NC2CCCCC2)C(C)C)cc1,.,.,.,0.67,0.6,i,.,0.7,2,4.0
O=C(NCC1CCCO1)c1ccc(N2CCCCC2)c([N+](=O)[O-])c1 (centres undefined),-3,-8,0.1,0.63,-34,i,13,-0.4,4,2.6
CCOC(=O)N1CCN(c2c(NCCOC)c(=O)c2=O)CC1,9,13,-2.2,0.72,5.5,i,-1,1.3,0,5.7
O=C(Nc1cccc(Br)c1)c1ccc2c(c1)SC1=NS(=O)(=O)CCN12,16,10,1.3,0.59,-2.6,i,.,-0.3,11,1.4
Brc1ccc(-c2c(-c3ccsc3)sc3ccccc23)cn1,4,-1,-4.3,0.74,4.0,i,.,1.4,3,5.8
O=S(=O)(Nc1ncccn1)c1ccc(Nc2ncnc3ccccc23)cc1,.,.,.,0.66,.,.,-7,0.6,0,14
CC(C)Oc1ccc(C(=O)NCc2ccco2)cc1,.,.,.,0.75,.,.,-10,-0.6,-2,1.1
CCc1nnc(NC(=O)c2ncc(Cl)c(Cl)c2Cl)s1,4,6,-0.3,0.68,-0.5,i,0,-0.7,-1,0.8
CC(C)NC(=O)c1onc(CSc2nc3ccccc3[nH]2)c1C(=O)NC(C)C,-4,2,-3.2,0.63,1.4,i,-12,-0.6,-6,1.7
COc1ccc(OC)c(S(=O)(=O)Nc2ccc(F)cc2)c1,18,8,3.3,0.65,-6.5,i,-13,-0.2,-4,0.3
CC(C)(CO)C(O)C(=O)NCCC#N (centres undefined),5,10,-10,0.72,-1.8,i,-10,0.2,-1,6.0
CCC(C)(C)NC(=O)C(c1ccc(OC)cc1)N(C(=O)CCC(=O)Nc1cc(C)on1)c1ccc2c(c1)OCCO2 (centres undefined),3,1,-1.6,0.66,8.8,i,1,0.4,4,0.5
CC(C)NS(=O)(=O)c1ccc(OCC(=O)Nc2ccc3c(c2)OCO3)cc1,3,11,-0.4,0.69,-0.7,i,-6,0.0,-3,0.2
Cc1c(Cl)cccc1N1C(=O)c2ccccc2C1=O,.,.,.,0.74,.,.,-4,0.6,-5,4.2
O=C(NC1CCCCCCC1)C1CCN(S(=O)(=O)N2CCCC2)CC1,.,.,.,0.7,.,.,-27,-0.5,-2,2.7
COC(=O)/C=C/c1c(C)[nH]c(=O)[nH]c1=O,1,-4,-4.7,0.67,3.6,i,-7,-0.1,-2,3.4
CC(C)N(Cc1ccccc1)C(=S)Nc1cccnc1,14,10,1.1,0.71,-5.4,i,-22,-0.3,-3,3.0
CCOC(=O)Cn1cncc1-c1ccc([N+](=O)[O-])cc1,.,.,.,0.67,.,.,-4,-0.2,-4,10
COc1ccc2c(c1)c1ncn(Cc3ccccn3)c(=O)c1n2C,-22*,-10*,-3.4*,0.67,.,i,-7,1.2,-22,i
Cc1cccc(-n2cc(-c3ccc([N+](=O)[O-])cc3)[nH]c2=S)c1,19,5,-2.2,0.7,1.8,i,-9,-0.7,-2,8.6
CC(NS(=O)(=O)/C=C/c1ccccc1)C(=O)NCCc1ccc(S(N)(=O)=O)cc1 (centres undefined),18,14,3.2,0.72,1.0,.,-8,-1.3,-3,-0.2

# Part of the list above in order of SMILES length, highest first:
SMILES,rRNA inh HTS,rRNA inh HTS OD600,rRNA inh HTS RFP,E coli growth,AF4-AF9 inh,FGF22 binding,T cruzi inh,A1 inh,Beta cell apopt,UCH37 inh
CCC(C)(C)NC(=O)C(c1ccc(OC)cc1)N(C(=O)CCC(=O)Nc1cc(C)on1)c1ccc2c(c1)OCCO2 (centres undefined),3,1,-1.6,0.66,8.8,i,1,0.4,4,0.5
CC(NS(=O)(=O)/C=C/c1ccccc1)C(=O)NCCc1ccc(S(N)(=O)=O)cc1 (centres undefined),18,14,3.2,0.72,1.0,.,-8,-1.3,-3,-0.2
Cc1cccc(-n2cc(-c3ccc([N+](=O)[O-])cc3)[nH]c2=S)c1,19,5,-2.2,0.7,1.8,i,-9,-0.7,-2,8.6
O=C(NC1CCCCCCC1)C1CCN(S(=O)(=O)N2CCCC2)CC1,.,.,.,0.7,.,.,-27,-0.5,-2,2.7
COc1ccc2c(c1)c1ncn(Cc3ccccn3)c(=O)c1n2C,-22*,-10*,-3.4*,0.67,.,i,-7,1.2,-22,i
COC(=O)/C=C/c1c(C)[nH]c(=O)[nH]c1=O,1,-4,-4.7,0.67,3.6,i,-7,-0.1,-2,3.4
Cc1c(Cl)cccc1N1C(=O)c2ccccc2C1=O,.,.,.,0.74,.,.,-4,0.6,-5,4.2
CC(C)N(Cc1ccccc1)C(=S)Nc1cccnc1,14,10,1.1,0.71,-5.4,i,-22,-0.3,-3,3.0
CC(C)(CO)C(O)C(=O)NCCC#N (centres undefined),5,10,-10,0.72,-1.8,i,-10,0.2,-1,6.0

# Screens deposited in PubChem by several laboratories.

# Not all compounds are listed; the hit share may differ from the screen's.
